Mtb hypoxia rep – PubChem AID 1159583. M. tuberculosis hypoxia-regulated fluorescent reporter, fluorescence. fluorescence inhibition, % (no concentration beside the values). 300,000 compounds, 0.1% hits;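 active means 35 to 45% if threefold the growth effect, above 45% if 1.5-fold the growth effect; inactive means the rest, general growth blockers included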;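 further: wells of about 50 µL received 100 nL stock; 0% = vehicle wells and 100% = reference inhibitor wells; whole bacteria with a GFP reporter of the hypoxia response; strong numbers were not always called active; many hits fall short of the cut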
Sa RN4220 lethal – growth inhibition of S. aureus RN4220, primary screen, OD600; 16 h; inhibition, % (no concentration beside the values); 330,000 compounds, 0.33% hits;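 active means z-score of -3 or lower and OD600 up to 0.18 on both plates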;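 further: plate controls were untreated cells for no effect and reference antibiotic for full effect; stock transfer was 100 nL into about 80 µL; one replicate is shown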
BJeLR lethal – MLPCN primary cell-based screen for lethality selective to Ras in HRASV12 cells; BJeLR (HRASV12) viability, CellTiter-Glo ATP luminescence, 48 h; reference of the scale not given here; inhibition, % (concentration not given with the values); 300,000 compounds, 0.17% hits;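 active means replicate mean above 50%; inconclusive means above 50% but judged a plate artefact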;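 further: 50 nL library stock added to about 25 µL; numbers are from one replicate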
Bead autofluor – compound fluorescence in toxin protease inhibitor counterscreen. fluorescence intensity (concentration not given with the values). compound autofluorescence counterscreen, microsphere flow cytometry; stronger effect = higher value. AID 624483. 360,000 compounds, 3.1% hits;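 active means at least 3 SD above the mean of all compounds, about 16000 in these data; inconclusive means too few beads counted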;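 further: 100 nL of 1 mM stock went into each well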
PrP UTR inh – inhibition of PrP 5' UTR reporter expression; inhibition, % (test concentration not listed); cell-based PrP 5' UTR mRNA reporter, plate reader; 340,000 compounds, 0.35% hits;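 active means every replicate at 50% or more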;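 further: 0 = median of the neutral control wells; tested in H4 reporter cells; numbers are from one replicate; inactives centre near -14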
Sa ugtP lethal – growth inhibition of ugtP-null S. aureus, primary screen, RN4220 ugtP deletion, OD600; 330,000 compounds, 0.54% hits; 16 h; some inactives read as strong as hits; growth inhibition, % (test concentration not listed); AID 1259309, 2017;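 active means z-score under -3 and OD600 up to 0.15 on both plates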;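 further: plate controls were untreated wells for no effect and antibiotic for full effect; wells of about 80 µL received 100 nL stock; the first replicate is given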
Mtb hypoxia rep growth – further read-out of Mtb hypoxia rep, marked with its call; growth inhibition, %; measured here: M. tuberculosis growth (absorbance);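 0% = vehicle and 100% = reference antibiotic; read after six days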
An asterisk follows results filed as active; ? = inconclusive; . = no result given; & = joins results of further samples. Rows were taken by chance; overall some 4% were active at least once.

SMILES	Mtb hypoxia rep	Mtb hypoxia rep growth	Sa RN4220 lethal	BJeLR lethal	Bead autofluor	PrP UTR inh	Sa ugtP lethal
COc1ccc(C(=O)N/C(=C\c2cn(S(=O)(=O)N(C)C)c3ccccc23)C(=O)NCCN2CCOCC2)cc1	5	-5	3.7	-12	5693	-10	0
Cc1ccc(NC(=O)Cn2c(-c3ccc(F)cc3)cnc2SCC(=O)Nc2c(C)cccc2C)cc1	1	-2	6.7	-7	2385	-9	-1
CC(=O)Nc1cccc(-c2csc(Nc3ncccn3)n2)c1	1	9	-11	16	.	.	1
O=C1c2sc3nc4c(c(=O)n3c2C(=O)N1c1ccccc1)CCC4	9	4	6.1	2	2464	-90	2
CC(=O)Nc1ccc2nc(CN3CCC(CO)(CCc4ccccc4)CC3)ccc2c1	3	5	1.6	2	5862	-11	2
COC(=O)CCN(C(=O)c1ccc([N+](=O)[O-])cc1)c1ccccn1	10	11	6.1	2	6382	0	8
CN(C)CCCN(C(=O)c1cccs1)c1nc2cc3c(cc2s1)OCO3	-3	-4	15	7	4436	-19	6
CC(CN1C(C)CCCC1C)OC(=O)c1ccc(Cl)cc1Cl (stereo not drawn)	3	17	2.0	28	4401	-7	9
Cc1ccc(NS(=O)(=O)c2cc(C(=O)N3CCCC3)ccc2C)cc1C	-8	3	-2.0	6	4510	-21	-4
Cc1ccc(NC(=O)c2cc(-c3cccs3)nc3ccccc23)nc1	5	9	0.0	-11	5727	-18	9
O=C(c1cccc(-c2ccco2)c1)N1CCCC(N2CCN(c3ccc(F)cc3)CC2)C1 (stereo not drawn)	3	-8	-1.9	-7	5855	-16	-4
Cc1ccc(-n2ncc(N(C)C)c(Cl)c2=O)cc1	.	.	-0.7	-2	2436	-9	-1
O=C(c1ccco1)N1N=C(c2ccc(Br)cc2)CC1c1ccco1 (stereo not drawn)	11	4	6.4	.	?	-15	-6
O=[N+]([O-])c1ccc(S(=O)(=O)Nc2ccc(S(=O)(=O)N3CCCC3)cc2)cc1	-1	0	6.9	-1	5420	-20	9
Oc1ccc(C=NN2CCN(C3c4ccccc4-c4ccccc43)CC2)cc1	-8	-7	-3.1	.	.	.	6
CC(C)CN(C(=O)COC(=O)c1c2c(nc3ccccc13)CCC2)c1c(N)n(Cc2ccccc2)c(=O)[nH]c1=O	0	-8	-4.6	6	6103	-3	5
NC(N)=N/N=C/c1ccc(N2CCOCC2)cc1	.	.	.	6	4508	-23	.
CCC1CCc2sc(C(=O)N(C)CC(=O)Nc3ccc(OC)cc3)cc2C1 (stereo not drawn)	4	1	0.4	-16	5240	-15	12
Clc1ccc(-c2nnc(NCCN3CCCC3)c3ccccc23)cc1	-3	8	-1.3	1	6272	-9	-9
OCCNCCCCCOc1ccc(F)cc1	17	7	3.0	2	9246	-5	5
CCCC(=O)c1c(NC)cc(C)oc1=O	5	3	-0.5	4	21049*	-5	-11
COCCCNCC(=O)c1c(N)n(Cc2ccccc2)c(=O)n(C)c1=O	3	0	0.0	5	15821	-26	-3
O=C(NCC(c1ccco1)N1CCc2ccccc21)c1cccc([N+](=O)[O-])c1 (stereo not drawn)	9	3	-2.4	1	5859	-6	3
CSc1ccccc1OCc1cc(C(=O)N2CCNC(=O)C2)no1	3	4	-1.3	-1	4611	-16	0
CCOC(=O)C1=C(O)C(=O)N(Cc2ccc(C(C)(C)C)cc2)CC1	8	20	6.8	2	2173	-17	13
COc1ccc2c(COC(=O)c3cccc(S(=O)(=O)NCC(C)C)c3)cc(=O)oc2c1	14	-1	13	-9	4351	-28	-9
Cc1ccc(S(=O)(=O)NCCCC(=O)C=[N+]=[N-])cc1	.	.	3.6	.	3896	-22	3
COc1ccc(CN(CCC(c2ccc(F)cc2)C2CCOC(C)(C)C2)C(=O)c2ccco2)cc1 (stereo not drawn)	-11	-12	-3.8	-4	2504	-9&-5	7
COC(=O)C(Cc1ccccc1)NC(=O)CNS(=O)(=O)c1ccc(Br)cc1 (stereo not drawn)	9	5	7.9	2	3271	-24	0
CCN1C(=O)c2cccc3c(S(=O)(=O)N4CCC(C)CC4)ccc1c23	10	10	-1.4	.	8088	-10	-2
COc1cccc(NC(=O)COC(=O)c2c(F)cccc2F)c1	0	10	3.4	-15	2096	-3	-4
COc1cc(CNCCCN2CCOCC2)ccc1OCC(=O)Nc1cccc(C(F)(F)F)c1	11	10	2.2	4	11675	-27	-2
Cc1cccc(NC(=O)CCN2C(=O)C3C4CCC(C4)C3C2=O)c1C (stereo not drawn)	-3	-5	1.3	4	8648	-22	7
CSc1nnc(C(C)(C)C)c(=O)n1/N=C/c1ccccc1O	.	.	.	-1	4430	-8	.
CC[C@@]12C(=O)N(c3cccc(Br)c3)C(=O)N1[C@H](c1cccc(C)c1)[C@@H]1C(=O)N(Cc3ccccc3)C(=O)[C@@H]12	.	.	.	-14	4063	-16	.
Cc1ccc(CN2CCN(N=Cc3ccccc3)CC2)cc1	12	4	2.4	.	.	.	11
C/C(=N\NC(=O)C1CCCC1)c1ccc(C(C)C)cc1	.	.	.	-1	6030	-16	.
Cc1ccccc1NC(=O)c1cc(S(=O)(=O)N2CCOCC2)ccc1F	7	-5	2.4	3	8085	-13	9
Cc1nn(C)c(-c2n[nH]c(=S)n2Cc2ccco2)c1Cl	-6	4	-3.7	6	7718	-24	-6
CS(=O)(=O)N(CC(=O)NCc1cccnc1)Cc1ccc(Cl)cc1	6	11	5.6	5	4254	-1	5
COc1ccc(C(=O)NCCNc2nc3cc(C)c(C)cc3cc2C)cc1	-2	0	-6.0	-3	3159	-9	-4
O=C(c1ccc(Cl)cc1)N1CCC(=O)N(C(CO)Cc2ccccc2)CC1 (stereo not drawn)	5	8	1.7	-1	2959	2	0
COc1ccc(-c2noc(CNC(=O)c3ccc4c(c3)OCO4)n2)cc1OC	5	4	0.0	-12	4264	-22	11
CS(=O)(=O)c1ccc(Cl)c(NC(=O)C2CCN(S(=O)(=O)c3cccs3)CC2)c1	8	-7	-0.1	.	.	.	2
Cc1ccc(S(=O)(=O)N2CCCC(C(=O)N3CCC4(CC3)OCCO4)C2)cc1 (stereo not drawn)	1	8	-0.9	3	9811	-14	2
CC(C)Cn1c(=O)c2c(nc3n2CCCN3Cc2ccccc2)n(C)c1=O	5	11	3.9	1	3950	.	2
COc1ccc(NC(=O)c2ccc(S(=O)(=O)N3CCOCC3)cc2)c(OC)c1	1	4	1.9	-8	24065*	-17	2
COc1cc(C(CN)CC(=O)O)ccc1O (stereo not drawn)	-8	4	1.2	-3	4998	-22	5
CCOC(=O)c1nnc2c(Br)c(-c3ccccc3)nn2c1C	5	1	4.9	-31	3801	-19	-4
COCCN(C(=O)CN1CCc2ccccc21)c1c(N)n(Cc2ccccc2)c(=O)[nH]c1=O	1	5	5.8	.	4210	-14	0
O=C(NN=Cc1c[nH]c2ccccc12)c1ccc(O)c(O)c1	8	7	-0.9	.	.	.	12
Cc1ccc(OCCOCCn2ccnc2)c(Br)c1	4	4	-16	6	2760	-15	-7
O=c1oc2cc(Oc3ccc(C(F)(F)F)cc3[N+](=O)[O-])ccc2c2c1CCC2	7	2	6.8	-9	2047	-34	7
CC1CN(C(C)CO)C(=O)c2cccc(NS(=O)(=O)c3ccc(F)cc3)c2OC1CN(C)C(=O)NC1CCCCC1 (stereo not drawn)	5	8	6.1	.	.	.	-7
Cc1noc(C)c1COc1ccc(C(=O)OCC(=O)NCc2ccccc2Cl)cc1	3	1	0.3	5	2309	-16	1
Cc1cc(C)c2nc(N3CCC(C(=O)N4CCN(c5ncccn5)CC4)CC3)sc2c1	6	5	3.7	3	9140	-7	-15
CN(C)c1ccc(-c2nn3c(-c4cccnc4)nnc3s2)cc1	3	2	5.9	-5	.	.	-1
Cc1cccc(CNc2ccc(C(CC(N)=O)NC(=O)Cc3cccc4ccccc34)cc2[N+](=O)[O-])c1 (stereo not drawn)	.	.	.	0	3760	-9	.
Cn1c(Cc2cccc3ccccc23)nnc1SCC(=O)N1CCN(c2ccccc2)CC1	13	-1	4.8	1	?	-5	2
COc1ccccc1CN1CCCC(N2CCN(c3ccc(F)cc3)CC2)C1 (stereo not drawn)	16	2	3.3	-1	4026	-19	15

Later entries:
SMILES	Mtb hypoxia rep	Mtb hypoxia rep growth	Sa RN4220 lethal	BJeLR lethal	Bead autofluor	PrP UTR inh	Sa ugtP lethal
O=S(=O)(NCc1ccccc1)c1ccc(Br)c2nsnc12	13	3	2.0	-5	4795	5	3
CC1=C(C(=O)N2CCCC(N3CCN(c4ccccc4F)CC3)C2)OCCO1 (stereo not drawn)	4	5	1.4	-8	5825	-13	3
Cc1cc(=O)[nH]c(SCCCOc2ccc3c(c2)CCC3)n1	6	5	10	4	23738*	-22	-12
O=C(O)c1csc(NN=Cc2ccc(Br)cc2)n1	13	13	-1.4	.	.	.	-1
CCn1cc(CN2CCCC(CNS(=O)(=O)c3ccc(OC)cc3)C2)cn1 (stereo not drawn)	2	-7	2.4	-11	6400	-25	3
COc1ccc(NC(=O)c2cccnc2)c([N+](=O)[O-])c1	5	5	3.3	24	4466	-10	4
O=C(CNC1CCCCC1)NCC1(c2ccccc2)CCCC1	-1	2	-0.8	1	1937	-26	-3
CN(C)c1cc[n+](CC(=O)Nc2cccc([N+](=O)[O-])c2)cc1	-1	-5	4.9	-3	3490	-16	14
Cc1cc(C(=O)CSc2cccc[n+]2[O-])c(C)n1-c1ccc(OC(F)F)cc1	4	4	1.9	0	4988	-80	7
CC(C)Nc1ccc(C(CC(N)=O)NC(=O)Cc2ccc(Cl)cc2)cc1[N+](=O)[O-] (stereo not drawn)	7	5	11	6	3984	-18	-1
Cc1cc(C)nc(N2CCCC(C(=O)NCCc3ccccc3F)C2)n1 (stereo not drawn)	-2	-2	6.2	-2	10786	-19	-4
COc1cccc(CN2CCNC(=O)C2CC(=O)NCCc2nc(C)c(C)s2)c1OC (stereo not drawn)	10	8	0.2	-4	2344	-16	1
Cc1cc(NN=Cc2ccc([N+](=O)[O-])o2)nc2ccccc12	4	4	27	.	.	.	18

Part of the list above in order of SMILES length, falling.
SMILES	Mtb hypoxia rep	Mtb hypoxia rep growth	Sa RN4220 lethal	BJeLR lethal	Bead autofluor	PrP UTR inh	Sa ugtP lethal
Cc1cccc(CNc2ccc(C(CC(N)=O)NC(=O)Cc3cccc4ccccc34)cc2[N+](=O)[O-])c1 (stereo not drawn)	.	.	.	0	3760	-9	.
CC(C)Nc1ccc(C(CC(N)=O)NC(=O)Cc2ccc(Cl)cc2)cc1[N+](=O)[O-] (stereo not drawn)	7	5	11	6	3984	-18	-1
Cc1cc(C)c2nc(N3CCC(C(=O)N4CCN(c5ncccn5)CC4)CC3)sc2c1	6	5	3.7	3	9140	-7	-15
Cn1c(Cc2cccc3ccccc23)nnc1SCC(=O)N1CCN(c2ccccc2)CC1	13	-1	4.8	1	?	-5	2
COc1cccc(CN2CCNC(=O)C2CC(=O)NCCc2nc(C)c(C)s2)c1OC (stereo not drawn)	10	8	0.2	-4	2344	-16	1
Cc1noc(C)c1COc1ccc(C(=O)OCC(=O)NCc2ccccc2Cl)cc1	3	1	0.3	5	2309	-16	1
CC1=C(C(=O)N2CCCC(N3CCN(c4ccccc4F)CC3)C2)OCCO1 (stereo not drawn)	4	5	1.4	-8	5825	-13	3
CCn1cc(CN2CCCC(CNS(=O)(=O)c3ccc(OC)cc3)C2)cn1 (stereo not drawn)	2	-7	2.4	-11	6400	-25	3
COc1ccccc1CN1CCCC(N2CCN(c3ccc(F)cc3)CC2)C1 (stereo not drawn)	16	2	3.3	-1	4026	-19	15
Cc1cc(C)nc(N2CCCC(C(=O)NCCc3ccccc3F)C2)n1 (stereo not drawn)	-2	-2	6.2	-2	10786	-19	-4
COc1ccc(NC(=O)c2cccnc2)c([N+](=O)[O-])c1	5	5	3.3	24	4466	-10	4
CN(C)c1ccc(-c2nn3c(-c4cccnc4)nnc3s2)cc1	3	2	5.9	-5	.	.	-1
Cc1cc(=O)[nH]c(SCCCOc2ccc3c(c2)CCC3)n1	6	5	10	4	23738*	-22	-12
O=S(=O)(NCc1ccccc1)c1ccc(Br)c2nsnc12	13	3	2.0	-5	4795	5	3
O=C(CNC1CCCCC1)NCC1(c2ccccc2)CCCC1	-1	2	-0.8	1	1937	-26	-3
O=C(O)c1csc(NN=Cc2ccc(Br)cc2)n1	13	13	-1.4	.	.	.	-1
